Screens from PubChem BioAssay.
Autofluor counter: compound fluorescence in toxin protease inhibitor counterscreen; compound autofluorescence counterscreen, microsphere flow cytometry; active compounds read high; 3.1% of 360,000 active; AID 624483; fluorescence intensity (no concentration beside the values);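 active = at least 3 SD above the mean of all compounds, about 16000 in these data; inconclusive = too few beads counted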;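 note: 100 nL of 1 mM stock went into each well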
RN4220 kill: kills Staphylococcus aureus RN4220; AID 1259311; inhibition, % (concentration not given with the values); S. aureus RN4220 growth, OD600, 16 h; 0.33% of 330,000 active;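 active = z-score of -3 or lower and OD600 up to 0.18 on both plates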;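 note: plate controls were untreated cells for no effect and reference antibiotic for full effect; stock transfer was 100 nL into about 80 µL; one replicate is shown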
BJeLR lethal: kills HRASV12-expressing BJeLR cells; BJeLR (HRASV12) viability, CellTiter-Glo ATP luminescence, 48 h; reference of the scale not given here; inhibition, % (test concentration not listed); 0.17% of 300,000 active; AID 1554;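 active = replicate mean above 50%; inconclusive = above 50% but judged a plate artefact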;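 note: 50 nL library stock added to about 25 µL; numbers are from one replicate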
PrP UTR inh: suppresses PrP 5' UTR mRNA reporter expression | cell-based PrP 5' UTR mRNA reporter, plate reader | inhibition, % (concentration not given with the values) | AID 488862 | 0.35% of 340,000 active;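 active = every replicate at 50% or more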;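 note: 0 = median of the neutral control wells; tested in H4 reporter cells; numbers are from one replicate; inactives centre near -14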
Sa ugtP lethal: growth inhibition of S. aureus ugtP deletion strain; S. aureus RN4220 ugtP deletion, OD600 growth, 16 h; some inactives read as strong as hits; growth inhibition, % (concentration not given with the values); 0.54% of 330,000 active; AID 1259309;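 active = z-score under -3 and OD600 up to 0.15 on both plates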;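 note: plate controls were untreated wells for no effect and antibiotic for full effect; wells of about 80 µL received 100 nL stock; the first replicate is given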
Mtb hypoxia inh: reduces hypoxia-regulated biosensor signal in M. tuberculosis; M. tuberculosis hypoxia-regulated fluorescent reporter, fluorescence; fluorescence inhibition, % (test concentration not listed); 0.1% of 300,000 active; AID 1159583;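 active = 35 to 45% if threefold the growth effect, above 45% if 1.5-fold the growth effect; inactive = the rest, general growth blockers included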;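 note: wells of about 50 µL received 100 nL stock; 0% = vehicle wells and 100% = reference inhibitor wells; whole bacteria with a GFP reporter of the hypoxia response; strong numbers were not always called active; many hits fall short of the cut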
Mtb hypoxia inh growth: also measured in Mtb hypoxia inh; calls as there; growth inhibition, %; measured here: M. tuberculosis growth (absorbance);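 0% = vehicle and 100% = reference antibiotic; read after six days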
* marks the source's active call; other numbers are inactive results; ? = inconclusive; · = not tested or not shown.

SMILES	Autofluor counter	RN4220 kill	BJeLR lethal	PrP UTR inh	Sa ugtP lethal	Mtb hypoxia inh	Mtb hypoxia inh growth
Cc1ccc(-c2nnn(CC(=O)N(CCO)C(C(=O)NC3CCCCC3)c3ccncc3)n2)o1 (stereo not given)	4767	2.4	0	-11	10	11	0
CCC(CC)C(=O)Nc1cc(C)cc(C)c1	3317	1.0	8	2	-2	·	·
CC(=O)c1ccc2c(c1)OCCOCCOc1ccccc1OCCOCCO2	3499	-2.7	3	-15	4	4	-2
CCN(Cc1ccccc1)S(=O)(=O)c1ccc(C(=O)Nc2nnc(-c3ccccc3OC)o2)cc1	4220	9.6	5	9	0	10	8
O=C(CCN1CCCCO1)N1CCCC(N2CCN(c3ccc(F)cc3)CC2)C1 (stereo not given)	4086	2.5	5	0	12	3	5
COc1ccc(Cn2nnnc2CN2CCC(O)(c3ccc(F)cc3)CC2)cc1	3524	2.5	-6	7	2	1	5
COc1ccc(CCNC(=O)c2ccc(NS(=O)(=O)c3c(C)noc3C)cc2)cc1OC	4559	-1.3	-7	-3	8	·	·
CCOc1cc(C=NNC(=O)c2cccnc2)cc(Br)c1OCC(N)=O	·	-3.1	·	·	1	-10	-13
COCc1cc(C)n(CC(=O)NC(C)c2ccccc2)c(=O)c1C#N (stereo not given)	3405	8.1	-4	-6	10	1	5
O=C(NCC(=O)N(Cc1ccccc1)C(C(=O)NC1CCCC1)c1ccco1)c1ccco1 (stereo not given)	4706	0.2	0	-37	3	·	·
NC(=NOC(=O)c1cccc(Br)c1)c1ccc([N+](=O)[O-])cc1	·	3.8	·	·	4	-9	-10
C(=N\N1CCN(Cc2ccccc2)CC1)/c1cccs1	3630	·	-11	-43	·	·	·
Cc1cc(C)n2nc(C(=O)OCC(=O)N(CC(C)C)CC(C)C)nc2n1	4462	5.7	6	-24	5	11	2
C#CC[N+](C)(C)CC#Cc1ccccc1	4870	1.6	-3	-27	4	-10	-9
Cc1ccccc1-n1c(=O)n(Cc2ccco2)c(=O)c2[nH]cnc21	3949	1.2	-1	-16	0	-3	0
O=C(O)CSc1nc(-c2ccccc2)c(-c2ccccc2)[nH]1	4397	2.1	5	-23	14	6	11
CCc1sc(-c2c(C#N)c(N)nc3c2CCCCCC3)cc1[N+](=O)[O-]	3209	-0.6	-2	2	7	·	·
COc1cc(NC(=O)c2ccc([N+](=O)[O-])o2)ccc1NC(=O)c1ccco1	5404	14	7	-4	40	13	12
COc1ccc(N(CC(=O)NC2CCCCC2)C(=O)CNC(=O)c2ccco2)cc1	3564	4.8	1	-11	6	7	3
Cc1cc(S(=O)(=O)NCCN2CCOCC2)c(C)s1	9421	-1.1	-7	-12	-4	4	15
CCc1ccc[n+](-c2[nH]c(=O)sc2C=NNC([S-])=Nc2ccccc2)c1	·	3.4	·	·	6	13	3
Nc1ccc(-c2cnc[nH]2)cc1[N+](=O)[O-]	5657	2.3	3	-42	7	17	-5
Cc1cc(-c2ccc(N3C(=O)CCC3=O)c(C)c2)ccc1N1C(=O)CCC1=O	2976	-18	1	-16	-2	4	6
CCc1ccc(N(CC(=O)NC(C)C)C(=O)CCC(=O)Nc2nccs2)cc1	3308	2.9	-18	-17	5	5	5
CCOC(=O)C1CCN(C(=O)Cn2cc3c(n2)CCC(C)C3)CC1 (stereo not given)	5456	1.6	2	-28	3	·	·
COc1ccc(/C=C/C(=O)NC(=S)Nc2cc3oc4ccccc4c3cc2OC)cc1	2206	·	-4	-22	·	·	·
O=C(NCc1ccccc1Cl)C1CCN(S(=O)(=O)N2CCCC2)CC1	5728	0.3	8	-12	3	2	3
Cc1ccccc1OCC(=O)Nc1ccc(S(=O)(=O)N2CCCC2)cc1	·	-0.6	-6	-7	3	8	8
COc1ccccc1NC(=O)CN1CCN(CC(=O)Nc2ccc(OCc3ccccc3)cc2)CC1	3801	-3.9	1	1	-5	·	·
O/N=C(/CN(O)/C=C1/C=CC=N1)c1cccs1	4760	·	12	0	·	·	·

Five records drawn at random from the list so far, as already listed:
SMILES	Autofluor counter	RN4220 kill	BJeLR lethal	PrP UTR inh	Sa ugtP lethal	Mtb hypoxia inh	Mtb hypoxia inh growth
CCOC(=O)C1CCN(C(=O)Cn2cc3c(n2)CCC(C)C3)CC1 (stereo not given)	5456	1.6	2	-28	3	·	·
CCc1ccc[n+](-c2[nH]c(=O)sc2C=NNC([S-])=Nc2ccccc2)c1	·	3.4	·	·	6	13	3
Nc1ccc(-c2cnc[nH]2)cc1[N+](=O)[O-]	5657	2.3	3	-42	7	17	-5
COc1ccccc1NC(=O)CN1CCN(CC(=O)Nc2ccc(OCc3ccccc3)cc2)CC1	3801	-3.9	1	1	-5	·	·
Cc1ccccc1OCC(=O)Nc1ccc(S(=O)(=O)N2CCCC2)cc1	·	-0.6	-6	-7	3	8	8

Remaining list, next part.
SMILES	Autofluor counter	RN4220 kill	BJeLR lethal	PrP UTR inh	Sa ugtP lethal	Mtb hypoxia inh	Mtb hypoxia inh growth
Cn1c(N)c(C(=O)CSc2ccc3c(c2)OCCO3)c(=O)n(C)c1=O	4788	1.5	9	-37	-6	·	·
Cc1ccc(N=C(NO)c2cnccc2C(F)(F)F)c(C)c1	3515	3.0	0	-14	3	2	10
Cc1cccc(NC(=O)Cn2nc(-c3cccs3)ccc2=O)c1C	5579	0.9	5	-22	10	-9	-7
CCN(CC)S(=O)(=O)c1ccc(NS(=O)(=O)c2ccc(C)c(C)c2)cc1	·	3.5	-9	-17	-3	0	0
CC(C)Cc1ccc(-c2cc(=O)[nH][nH]2)cc1	4511	-4.5	4	-37	-15	7	-2
O=C(c1cc(-c2cccc(Cl)c2)on1)N1CCN(c2ccccc2)CC1	3196	-1.2	3	-16	-11	-7	-7
Cc1ccc2c(NC(=O)c3ccco3)cccc2n1	6805	-1.2	0	-9	0	2	5
O=C(COC(=O)CNC(=O)c1ccc(Cl)cc1)NC1CCCCCC1	6584	5.8	·	-28	9	6	-1
Cc1oc(-c2ccccc2Cl)nc1CSCC(=O)O	5679	1.9	-1	-21	1	5	1
COc1cc(-c2cc(-c3ccc(N)cc3)[nH]c(=O)c2C#N)cc(OC)c1OC	5251	3.0	0	2	-4	-2	3
O=C(Cn1c2[n+](c3ccc(C(F)(F)F)cc31)CCCCC2)c1ccc2c(c1)OCCO2	2658	2.3	·	-15	-8	-3	-3
N#CCCN1CCN(S(=O)(=O)c2ccc3c(c2)OCCCO3)CC1	3164	-12	-11	-4	-4	11	2
CCSc1nnc(NC(=O)CCC2CCCCC2)s1	4098	0.6	6	-11	0	1	3
Cc1ccc(C(=O)NCCN2C3=NCC(Cc4ccccc4)N3CC2Cc2ccc(O)cc2)cc1Br (stereo not given)	·	-9.6	·	·	-2	11	19
CCNC(=O)NC(=O)C(C)Sc1nc2ccccc2c(=O)n1-c1cccnc1 (stereo not given)	5633	-0.1	0	-8	3	13	0
O=C(COC(=O)C1CC1)Nc1ccc(N=Nc2ccccc2)cc1	2004	2.6	-11	-116	4	15	14
CC(C)c1cccc(C(C)C)c1NC(=O)CN1C(=O)NC2(CCCC2)C1=O	4888	-1.5	-15	-18	5	13	7
COc1cccc(CNC(=O)CCNC(=O)c2ccco2)c1	4230	5.3	-9	-13	3	12	2
O=C1c2ccccc2C(=O)N1CCCC(=O)N1CCc2ccccc21	2853	2.1	3	-52	6	·	·
CNC(=O)CCc1ccc(OC)cc1	3444	5.4	8	-13	1	10	2
CCOC(=O)N1CCN(c2nc3c(c(=O)[nH]c(=O)n3C)n2Cc2ccccc2Cl)CC1	·	3.0	2	·	6	3	7
COC(=O)Cc1cc(=O)n2c(nc3ccccc32)[nH]1	3970	·	-30	-2	·	·	·
CC(=O)Nc1ccc(S(=O)(=O)NNC(=O)c2cccc(Br)c2)cc1	2677	25	8	-15	1	4	-2
CCOC(=O)C1(C(N)=O)OC1(c1ccc(Cl)cc1)c1ccccc1Cl (stereo not given)	3895	9.7	·	-4	-2	18	8
CCOc1ccc(/C(C)=N/NC(=O)Cn2nc([N+](=O)[O-])cc2C)cc1	6327	·	-5	-10	·	·	·
Cc1[nH]c2ccccc2c1C(=O)CN1CCC(C)CC1	3348	3.1	4	-42	1	·	·
O=C(COc1ccc(Cl)cc1Cl)N1CCCN(C(=O)COc2ccc(Cl)cc2Cl)CC1	8623	-4.2	4	7	-21	5	7
CC1(C)O[C@@H]2CC3C4C[C@H](F)C5=CC(=O)C=CC5(C)C4C(O)CC3(C)[C@]2(C(=O)CO)O1 (stereo not given in full)	4958	·	-9	-13	·	·	·
CC(=O)Nc1ccc(Nc2nc(C(F)(F)F)nc3c2nnn3Cc2ccccc2Cl)cc1	3692	5.1	21	-9	-12	9	2
COc1ccc(Cn2c(-c3ccccc3)nc3c(c(=O)c4ccccc4n3C)c2=O)cc1	2199	3.8	6	-25	4	7	-5
CCCC(=O)N1CCN(c2ccc(NC(=O)c3ccc(Br)o3)cc2)CC1	2229	2.1	-10	-20	11	·	·
CCN1/C(=C/c2ccc3cc(C)cc(C)c3[n+]2CC)Sc2cc(C)ccc21	8167	100*	·	1	100*	·	·
CCOc1cc(C=NNC(N)=S)cc(Br)c1OCc1ccccc1C	·	12	·	·	-25	4	12
c1ccc2c(c1)NCC1CCCN21 (stereo not given)	2554	1.6	-1	-24	4	6	6
CCOC(=O)Cc1csc(Nc2c(C)n(C)n(-c3ccccc3)c2=O)n1	10254	0.2	-2	-19	-1	-2	0
O=[N+]([O-])c1cccc(C=NNc2ccccn2)c1	·	-1.2	·	·	-3	-8	-2
COc1cc(C(=O)Nc2ccccc2N2CCOCC2)ccc1OCC(=O)N1CCOCC1	?	4.5	-2	-4	9	-2	-7
O=C(/C=C/c1cccc([N+](=O)[O-])c1)Nc1ccc(Cl)cn1	2500	6.1	1	-49	9	8	10
O=C(C1CCCO1)N1CCN(C(=S)Nc2ccc(F)c(Cl)c2)CC1 (stereo not given)	4194	1.2	3	-18	7	8	8
Cc1ccc(Nc2cc(C)nc3c(C)cccc23)cc1	3168	2.7	0	0	-3	8	12
CCOC(=O)N1CCN(Cc2ccc(F)cc2F)CC1	11053	6.4	7	6	1	4	7
CCN1C(=O)C(CC(=O)NC)N(NC(=O)c2ccccc2)C1=S (stereo not given)	7525	3.1	2	-1	4	9	4
COCc1nnc(NC(=O)c2ccc3c(c2)OCO3)s1	3665	1.1	1	-29	-1	3	0
Cc1ccc(-n2c(SCC(N)=O)nnc2-c2cnccn2)cc1	3632	3.7	-2	·	8	9	14
Cc1ccc(NC(=O)c2nnn(-c3cc(C)cc(C)c3)c2N)cc1	9701	3.1	-6	-49	-4	2	6
CN(C(=O)Nc1ccccc1)C1CCS(=O)(=O)C1 (stereo not given)	4244	-0.9	4	-8	-2	·	·
CN(C)/C=C(/C#N)C(=O)c1cccc(Oc2ccc(C(C)(C)C)cc2)c1	4818	0.4	-1	-5	29	-1	-7
O/N=C/c1ccnc(SCc2ccccc2)n1	4543	·	-16	-129	·	·	·
COc1ccc(/C=c2\s/c(=C\C(=O)C(C)(C)C)[nH]c2=O)cc1O	4259	·	-15	12	·	·	·
O=C1COc2ccc(C(=O)COC(=O)CCOc3ccccc3)cc2N1	6510	-1.5	·	-57	3	12	10
O=[N+]([O-])c1cc(Cl)cc(/C=N/NC(=S)Nc2cc(S(=O)(=O)N3CCOCC3)ccc2Cl)c1O	4707	·	4	-26	·	·	·
COc1ccc(NC(=O)c2cccc(S(=O)(=O)N3CCc4ccccc43)c2)cn1	4195	4.1	6	-7	4	-4	7
COC(=O)c1ccc(N2CCN(C(=O)C3CC3)CC2)c([N+](=O)[O-])c1	3480	0.5	-5	-24	3	14	-1
COCCCNC(=O)c1c(NC(=O)c2ccccc2)n(Cc2ccccc2)c2nc3ccccc3nc12	?	-4.3	-6	-2	4	-4	-3
CCCC(=O)N1CCC(O)(c2cccc(F)c2)CC1	4163	1.7	-10	-12	0	·	·
O=C(Nc1cccn2ncnc12)c1ccc(Cl)cc1	23079*	5.1	3	-12	-2	8	5
O=C(COC(=O)Cc1cccs1)Nc1ccc(OC(F)(F)F)cc1	5448	1.5	10	-21	0	7	-1
CCSc1ccc(C(=O)NCC(=O)O)cc1	4720	1.7	-3	-22	15	12	6
CC1CCN(C(=O)CSc2nnc(CNC(=O)c3ccc(F)cc3)o2)CC1	5688	-1.9	-3	-22	1	3	10
CC(=NN=Cc1ccc(N(C)C)cc1)c1cccc([N+](=O)[O-])c1	·	0.9	·	·	-1	16	6
